Source: PubChem (National Center for Advancing Translational Sciences (NCATS))
gsp antagonist: antagonizes gsp, the McCune-Albright syndrome mutation; gsp-mutant cells, cAMP HTRF, 30 min; control for the full effect not named in the record; Potency, µM (top dose mostly 76.9 µM), for the others: at the top dose activity change, negative = inhibition, most hits filed as inhibitors; hit rate 0.4% among 340,000; AID 624288; active = falling curve of any shape with a large fitted effect; inconclusive = falling curve, mostly with a smaller effect; inactive = flat or rising curve; cell line not stated here;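 further: intracellular cAMP measured with PDE inhibitor Ro 20-1724 present during compound exposure; potency means the concentration at half of the fitted maximal effect; on the % scale 0 is the no-effect control and ±100 the full control effect; nearly all actives have a fitted effect of over 65% in size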
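G418-selected cells were plated in DMEM/10% FBS for 16-24 h at 37C, then treated with compounds plus the PDE inhibitor […] (300 uM solution added) for 30 min at 37C. Intracellular cAMP was measured by HTRF after 30 min lysis at room temperature.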
TRPML1 blocker: blocks the human TRPML1 channel; TRPML1-inducible cells, Ca2+ dye fluorescence, FDSS; stronger effect = lower value; inhibition of EC80 agonist-evoked calcium signal; activity change, negative = inhibition, % (test concentration not listed); hit rate 0.02% among 390,000; in the data active means activity change below about -50%; inconclusive means about -30% to -50%; inactive means above about -30%;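 further: stimulus is agonist 54-4 at its EC80 concentration; on the % scale 0 is the no-effect control and ±100 the full control effect; compound concentration not given in the record; the text of the record puts the active cut at -80%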
Target sequence (Q9GZU1 whole entry, looked up): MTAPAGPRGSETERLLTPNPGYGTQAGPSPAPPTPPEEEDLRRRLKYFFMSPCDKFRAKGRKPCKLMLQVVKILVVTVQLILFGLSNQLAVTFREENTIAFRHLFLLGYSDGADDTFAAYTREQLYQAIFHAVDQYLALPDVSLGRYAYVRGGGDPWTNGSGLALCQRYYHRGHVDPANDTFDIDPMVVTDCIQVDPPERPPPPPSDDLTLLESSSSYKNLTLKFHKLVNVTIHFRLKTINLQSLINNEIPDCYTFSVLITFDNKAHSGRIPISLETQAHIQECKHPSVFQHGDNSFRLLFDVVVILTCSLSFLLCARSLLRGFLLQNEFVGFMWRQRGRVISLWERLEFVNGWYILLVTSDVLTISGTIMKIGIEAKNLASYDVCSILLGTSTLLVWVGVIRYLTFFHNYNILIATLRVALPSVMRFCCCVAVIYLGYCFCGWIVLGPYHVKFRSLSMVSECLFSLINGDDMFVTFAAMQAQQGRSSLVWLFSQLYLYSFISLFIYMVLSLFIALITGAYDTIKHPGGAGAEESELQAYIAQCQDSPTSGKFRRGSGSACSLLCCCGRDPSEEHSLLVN
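Calcium fluorescence in TRPML1-DL cells induced overnight with Tet: a 110 s read after compound pin addition, then a 110 s antagonist read after challenge with 54-4 at 4 uM final (EC80).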
TRPML1 agonist: agonists of human TRPML1 channel | activation, % (no concentration beside the values) | hit rate 0.12% among 410,000 | Q9GZU1 | TRPML1-expressing cells, Ca2+ dye fluorescence, FDSS; host cell line not named in the record; reference of the full effect not given here; in the data active = activation above about 50%; inconclusive = about 30% to 50%; inactive = below about 30%; further: 0% is about no effect; the text of the record puts the active cut at 80%
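Calcium fluorescence on an FDSS kinetic reader gave the read-out. Tet-induced TRPML1-DL cells were plated overnight, dye-loaded (Ca8 with quencher, 45-90 min, room temperature, dark), then read 110 s after compound addition, and again 110 s after 4uM final 54-4 (EC80).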
gsp agonist: agonists of gsp mutant (McCune-Albright syndrome); gsp mutant cells, cAMP HTRF, 30 min; control for the full effect not named in the record; Potency, µM (titrated, usually from 76.9 µM), without a hit: top-dose activation (cAMP increase), usual class: activators; hit rate 0.13% among 340,000; AID 624287; active = well fitted activation curve with a large enough effect; inconclusive = small, poorly fitted or top-dose-only effect, or another doubt; inactive = no such curve, though single readings can be large or run the other way; cell line not stated here;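 further: phosphodiesterase inhibitor Ro 20-1724 added with compounds to block cAMP breakdown; potency means the concentration at half of the fitted maximal effect; nearly all actives have a fitted effect of over 60% in size; about a fifth of the inactives were tested at one dose only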
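Cells stably selected in G418 were plated at 2000/well, grown 16-24 hr, then given compounds in DMSO with the PDE inhibitor […] (300 uM solution added) for 30 min at 37C; cAMP was read by HTRF.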
Menin-MLL FL inh: inhibitors of human menin-MLL interaction, wild-type MLL peptide | Fluorescence polarization, fluorescein-MLL peptide displacement from menin | AID 1766 | 290,000 tested, under 10 active | FP activity change, % at 61.4 µM; inconclusive = falling polarisation curve, or a change in total fluorescence; inactive = total fluorescence flat and polarisation flat or rising; no compound was filed as active; the % refers to the polarisation; negative = inhibition;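 further: % of control where 0% means no effect; inhibitors lower the polarisation; unlabelled MLL peptide was the positive control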
ClpP mod: qHTS Assay for Activators of ClpP | ATP-dependent Clp protease proteolytic subunit (Bacillus subtilis (strain 168)), P80244 | purified B. subtilis ClpP, FRET peptide cleavage, 20 min | Potency, µM (doses to about 57.5 µM), without a hit: at the highest dose activity change, negative = active | hit rate 1.9% among 340,000 | AID 651965, 2013; active = well fitted falling curve with a large enough effect; inconclusive = small, poorly fitted or top-dose-only effect; inactive = no such curve, though single readings can be large or run the other way; further: potency means the concentration at half of the fitted maximal effect; the source files actives as falling curves though it sought activators and does not explain the sign; nearly all actives have a fitted effect of over 65% in size; many hits overshoot -100%
Target sequence (P80244 whole entry, looked up): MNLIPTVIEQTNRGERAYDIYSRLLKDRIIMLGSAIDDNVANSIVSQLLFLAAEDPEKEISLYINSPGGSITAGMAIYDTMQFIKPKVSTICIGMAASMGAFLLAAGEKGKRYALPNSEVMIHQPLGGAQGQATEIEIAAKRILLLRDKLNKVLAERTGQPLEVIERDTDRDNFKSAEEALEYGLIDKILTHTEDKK
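Purified B. subtilis ClpP, 10 microg/mL final in Tris/HCl pH8 with KCl, BSA, glycerol and Tween-20, cleaved an Abz/nitrotyrosine-quenched decapeptide. Fluorescence (ex 320, em 430) was read at 0 and 20 min at room temperature. Delta was normalized to 5.8 microM ADEP and DMSO/no-enzyme controls.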
* marks the source's active call; other numbers are inactive results; ? = inconclusive; / = not tested or not shown; & = joins results of further samples; [ ] = remark or other dose.

SMILES,gsp antagonist,TRPML1 blocker,ClpP mod,TRPML1 agonist,Menin-MLL FL inh,gsp agonist
Cc1cccc(N=C2Sc3nc4c(C)c(C)ccc4cc3CN2CCN2CCOCC2)c1,6%,14,0.1%,0.2,15,-76%[inhibitor]
CSCCC(NS(=O)(=O)c1ccc(Cl)cc1)C(=O)O (configuration not stated),7%,14,/,-0.1,-3.3,4%
Cc1ccccc1C(=O)N(Cc1nc(-c2ccc(Cl)cc2)no1)C(C)C,/,74,1.2%,1.6,/,/
CCN1c2cccc3cccc(c23)S1(=O)=O,1%,2,?,-0.4,0.1,29%
COc1ccc(NC(=O)CS(=O)CC(=O)NCc2cccc(C(F)(F)F)c2)cc1 (configuration not stated),5%,1,-1.0%,3.0,-1.2,-22%
Clc1ccc(N=c2ssnc2Cl)nc1,-1%,14,2.0%,1.2,-0.2,?
N/C(=N\OC(=O)c1cccc2ccccc12)c1cccc([N+](=O)[O-])c1,-2%,20,-1.2%,-0.3,1.3,-61%[inhibitor]
Cc1csc(SCC(=O)Nc2ccccc2[N+](=O)[O-])n1,-24%,5,/,-0.7,-4.1,-28%[15.4 µM]
COCCCNC(=O)c1c(N)n(-c2ccccc2)c2nc3ccccc3nc12,-36%,-1,-20%,-0.5,1.0,1%[15.4 µM]
COc1ccc(-c2[nH]c(-c3cccc(OC)c3)nc2SCC(=O)NCc2ccco2)cc1,?,6,4.8%,-0.8,1.7,2%
COc1ccc(NC(=O)CC2C(=O)N(C)C(=S)N2CCc2ccccc2F)cc1 (configuration not stated),-15%,26,/,-0.1,-1.0,-3%[15.4 µM]
O=C(NC(=S)Nc1ccc(CN2CCCCC2)cc1)c1cccc(OCc2ccccc2)c1,6%,13,/,-0.7,-0.1,6%[15.4 µM]
Cc1ccc(Cn2c(SCC(=O)N3CC(=O)Nc4ccccc43)nc3ccccc3c2=O)cc1,-15%,-26,1.6%,0.1,5.0,-1%
CC1(C)O[C@@H]2[C@H](O1)[C@@H](CO)O[C@H]2n1cnc2c(N)ncnc21,7%,-10,1.6%,-0.4,/,-35%[inhibitor]
N#CC1=C(Nc2ccccc2)SC=C(c2ccc(Br)cc2)N=C1N1CCOCC1,-2%,-9,-0.2%,-0.1,14,25%
O=c1[nH]cccc1-c1nc2ccccc2n1Cc1cccc(F)c1,2%,-6,-6.9%,0.1,-1.3,25%[15.4 µM]
Nc1c(Cl)ncnc1N/N=C/c1ccc2ccccc2n1,-6%,27,-0.8%,0.1,?,-2%
O=C(Nn1c(-c2ccc(Br)cc2)nc2ccccc2c1=O)c1ccc([N+](=O)[O-])cc1,?,5,/,2.8,4.9,7%[15.4 µM]
CCOC(=O)c1c(NC(=O)CN2CCOCC2)sc2c1CCCC2,-14%,14,-25%,6.7,2.7,4%
Cc1ccc(S(=O)(=O)N2CCOCC2)cc1N/N=C(\C#N)c1nc2ccccc2[nH]1,-1%,37,2.5%,-0.7,1.7,?
CC(C)CCN1CC(=O)N2Cc3[nH]c4ccccc4c3C[C@H]2C1=O,-1%,-1,/,-0.4,7.5,-9%[15.4 µM]
O=C1CNC(=O)c2cc(Cl)ccc2N1,/,6,-2.5%,-0.6,/,-52%[inhibitor]
O=c1c2c3nc4ccccc4nc3n(-c3ccc4c(c3)OCCO4)c2ncn1C1CCCC1,-2%,17,0.9%,-0.6,2.7,3%
Cc1cn(CC(=O)NCc2ccccc2)c(=O)[nH]c1=O,2%,-1,0.0%,0.6,/,/
O=C(N/N=C/c1c[nH]c2ccccc12)c1cc(Br)ccc1O,-18%,-20,-15%,-0.8,2.2,?
COc1ccc(/C=C2\Sc3ccc(C(=O)NCc4cccnc4)cc3N(C)C2=O)cc1OC,13%,11,/,0.4,5.3,0%[15.4 µM]
COc1ccc(CCN(Cc2cc3ccc(C)cc3[nH]c2=O)C(C)=O)cc1OC,5%,1,/,-0.3,1.7,-16%[15.4 µM]
OCc1cccc[n+]1Cc1ccccc1,13%,16,-13%,-0.4,/,-2%[15.4 µM]
O=C1CCN(Cc2ccccc2)CCN1CCO,3%,0,0.9%&0.4%,0.0&-0.5,-1.0,/
C=CCOc1cccc(C(=O)N2CCCC(CNS(=O)(=O)c3cccs3)C2)c1 (configuration not stated),9%,4,-2.0%,0.5,-0.4,?
COC(=O)c1ccc(C2C=C(c3ccc(Cl)cc3)Nc3nc4ccccc4n32)cc1 (configuration not stated),/,-4,1.4%,0.6,/,/
COc1ccc(CCNC(=O)C2=C(C)C(=O)OC23CCCCC3)c(OC)c1OC,/,-2,0.4%,-0.6,/,/
O=C(NCC1CCN(C(=O)c2ccc([N+](=O)[O-])cc2)CC1)c1ccc([N+](=O)[O-])cc1,-1%,6,/,-0.3,/,-9%[15.4 µM]
O=C(Cn1cnc2ccccc21)Nc1ccc(SC(F)F)cc1,-14%,32,/,-0.2,2.1,-29%
CC(=O)Nc1ccc(S(=O)(=O)N(CCCN2CCOCC2)Cc2cccs2)cc1,9%,1,-0.1%,0.4,-5.2,?
O=C1c2ccsc2SCCN1Cc1cccc(Cl)c1,-1%[15.4 µM],11,1.5%,0.7,-5.3,-19%
Cc1oc(-c2ccc(-c3ccccc3)cc2)nc1CN(C)C1CCOC1 (configuration not stated),1%,/,-6.7%,/,-1.7,11%
COc1ccccc1C(=O)N(Cc1ccccc1)c1ccc(C)cc1,-27%,3,0.8%,8.7,/,-1%
[O-][n+]1onc2c1CCc1nnc(-c3ccccc3)cc1-2,-7%,27,-0.1%,-0.4,3.6,1%
CCCN(CC(=O)Nc1ccccc1C)C(=O)Cc1n[nH]c(=O)c2ccccc12,7%,-8,0.3%,0.7,/,0%
CCOC(=O)Cn1c(=NC(=O)c2ccc([N+](=O)[O-])s2)sc2ccccc21,?,12,4.7%,0.5,4.2,2%
CCN(C(=O)COC(=O)c1ccc(C)c(S(=O)(=O)N2CCCCC2)c1)C1CCS(=O)(=O)C1 (configuration not stated),2%,-8,-2.6%,-0.9,/,3%
COc1ccc(-n2c(COc3cccc(C)c3)nnc2SCC(=O)O)cc1,0%,-4,/,0.4,0.4,6%
COc1cc2cnc(-c3ccccc3)c(C(=O)c3ccc(OCc4ccccc4)cc3)c2cc1OC,-2%,17,-7.8%,-0.1,/,/
CC1(C)CC(=O)C(C2C3=C(CC(C)(C)CC3=O)Oc3ccc4ccccc4c32)C(=O)C1 (configuration not stated),-20%,5,/,2.4,5.0,?
O=C(CCN1C(=O)/C(=C/c2cccs2)SC1=S)Nc1ccccn1,-12%,34,-1.5%,6.0,?,-40%[inhibitor]
COc1cc2c(cc1/C=C1/NC(=O)N(c3ccccc3)C1=O)OCO2,-6%,18,-4.4%,0.2,0.4,-7%[15.4 µM]
CC1CCc2c(sc(NC(=O)CSc3nc4c(c(C(F)(F)F)n3)CCc3ccccc3-4)c2C(N)=O)C1 (configuration not stated),12%,3,0.8%,0.0,3.6,13%
O=C(O)c1nnsc1-c1csnn1,2%,5,-3.9%,1.1,/,-52%[inhibitor]
NS(=O)(=O)c1ccc(NC(=O)CSc2nc3ccccc3[nH]2)cc1,6%,3,/,0.7,-10,-11%[15.4 µM]

Later entries
SMILES,gsp antagonist,TRPML1 blocker,ClpP mod,TRPML1 agonist,Menin-MLL FL inh,gsp agonist
Cc1ccc2nc(NS(C)(=O)=O)sc2c1,-4%,12,-0.8%,0.2,-2.1,12%
C[C@H]1CN([C@@H](C)CO)C(=O)c2cccc(NC(=O)C3CC3)c2O[C@H]1CN(C)CC1CCCCC1,10%,6,-2.8%,-0.3,/,7%
Cc1cccc(NC(=O)Cn2c(=O)n(CCCCCC(=O)NCc3ccccc3)c(=O)c3sccc32)c1,/,17,-10%,3.0,/,/
NS(=O)(=O)c1ccc(NC(=O)c2ccc3c(c2)OCO3)cc1,21%,-6,-0.1%,-0.2,-4.5,-17%[15.4 µM]
Cc1ccccc1Nc1nc(N)nc(COC(=O)c2ccc(S(=O)(=O)N(C)C)cc2)n1,7%,6,-2.3%,5.1,-0.8,-23%
O=c1c(C/C=C/c2ccccc2)c(O)ccn1Cc1ccc(Cl)cc1Cl,0%,-6,-2.5%,-0.1,-0.7,-31%[inhibitor]
COc1cccc(-c2nc(-c3ccc4c(c3)-c3ccccc3S4(=O)=O)c(-c3ccccc3)[nH]2)c1OC,4%,-8,?,0.5,4.1,?
COc1cc(/C=C(/C(=O)c2cccs2)c2nc3ccccc3[nH]2)ccc1O,-11%,5,-1.9%,-0.6,-2.0,-37%[inhibitor]
CCOc1ccc(S(=O)(=O)NCCCN2CCOCC2)cc1,0%,-9,0.6%,0.6,1.2,4%
C[C@H]1CN([C@@H](C)CO)C(=O)CCCn2nncc2CO[C@H]1CN(C)C(=O)c1ccc2ccn(C)c2c1,/,14,4.1%,-0.3,/,0%
Oc1cccnc1CN1CCCCC1,13%,-20,/,-0.2,/,-39%[inhibitor]
CCOC(=O)C(C)Sc1nc2c(c(=O)[nH]c(=O)n2C)n1Cc1ccc(Cl)cc1 (configuration not stated),9%,-2,1.0%,1.0,1.1,-53%[inhibitor]
CC(=O)N(CCc1ccccc1)Cc1cc2ccc(C)c(C)c2[nH]c1=O,-10%,9,-7.7%,4.9,-1.6,-3%[15.4 µM]
Cc1c(Cl)cccc1NS(=O)(=O)c1ccc(-c2ccc(=O)[nH]n2)o1,2%,-7,/,0.5,-1.6,10%
O=C1CC2(CCCC2)Oc2ccc(F)cc21,3%,14,4.4%,-0.3,/,-77%[inhibitor]
O=C(O)CCNC(=O)C12CC3CC(CC(C3)C1)C2,/,-4,/,0.0,-0.1,9%[15.4 µM]
O=C(CC1Oc2ccccc2NC1=O)NCCCN1CCN(Cc2ccccc2)CC1 (configuration not stated),5%,-12,1.2%,0.0,0.4,?
Cc1cccc(-c2nc3sc(C)cc3c(=O)o2)c1,3%,10,-0.9%,0.9,3.3,5%[15.4 µM]
COc1ccc2cc3cc(C(=O)N4CCN(c5ccccn5)CC4)oc3nc2c1,0%,-5,-9.4%,1.4,0.7,26%
COC(=O)C(NC(=O)c1ccccc1Cl)(Nc1ncc(S(=O)(=O)c2ccc([N+](=O)[O-])cc2)s1)C(F)(F)F (configuration not stated),-2%,24,-1.9%,9.8,2.0,-26%
COc1ccc(CC(=O)Nc2ccc3c(c2)OCO3)cc1S(=O)(=O)N1CCOCC1,12%,1,1.5%,-0.9,0.0,-59%[inhibitor]
